Screening results (PubChem)
NPYLR7 ag = activates Aedes aegypti NPYLR7 receptor; 270,000 compounds, 0.15% hits; HEK293T NPYLR7/Galpha15, GCaMP6s calcium fluorescence; activation, % at 10 µM; AID 1259423; in the data active = activation above about 40%;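 note: 0% = vehicle and 100% = reference agonist at the receptor; some compounds past the cut are filed as inactive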
NPYLR7 ag max-min = further read-out of NPYLR7 ag, marked with its call; activation, %; measured here: Max-Min RFU normalised activation; some inactives read as strong as hits;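 span of the calcium signal over five minutes; 0% = vehicle and 100% = native peptide agonist; compound fluorescence can raise it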
The depositor's hits bear a star; & = joins results of further samples.

Molecule,NPYLR7 ag max-min,NPYLR7 ag
Cn1c(SCC(=O)C(C)(C)C)nnc1-c1ccc(Cl)cc1,9,10
CCc1ccccc1Nc1nc2ccccc2n1C,-2,-3
COc1ccccc1CN1CCn2nc(C(=O)NCc3ccc(F)cc3)cc2C1=O,11,17
COc1ccc(C(C)(C)C)cc1S(=O)(=O)NCCNc1cc(-n2ccnc2C)ncn1,-23,-13
Cc1nc2ccncc2cc1C(=O)N1CCN(C)C(=O)C1,9,12
Cc1cc(CC(C)NC(=O)Cc2cc(F)ccc2C)n[nH]1 (stereo unspecified),-1,2
CCOC(=O)c1nn(-c2ccccc2Cl)c(=O)cc1OCC,4,9
CCCCN1CCCCC1(C)C(=O)NCc1c(F)ccc(C)c1F (stereo unspecified),1,1
Cn1cc(Nc2cccc(C(=O)NC3CCc4cc(Cl)ccc43)c2)cn1 (stereo unspecified),14,12
Cc1cc(S(=O)(=O)Nc2c(C)nn(C(C)C)c2C)ccc1F,5,9
COc1ccc(OC)c(C2CCCN2CC(=O)NCc2ccccc2F)c1 (stereo unspecified),15,1
CCOC(=O)C1=C(C)N=c2s/c(=C\c3ccc(Cl)cc3)c(=O)n2C1c1ccc(N(C)C)cc1 (stereo unspecified),7,-1

Whole records from above:
Cc1cc(S(=O)(=O)Nc2c(C)nn(C(C)C)c2C)ccc1F as listed: NPYLR7 ag max-min: 5; NPYLR7 ag: 9
COc1ccccc1CN1CCn2nc(C(=O)NCc3ccc(F)cc3)cc2C1=O as listed: NPYLR7 ag max-min: 11; NPYLR7 ag: 17

Next section
Molecule,NPYLR7 ag max-min,NPYLR7 ag
CCC(C(=O)NCc1ccco1)n1c(=O)n(-c2ccccc2Cl)c(=O)c2ccc(Cl)cc21 (stereo unspecified),38,30
Cc1ccc(NC(=O)CSc2nc(=O)n(Cc3ccccn3)c3c2CCC3)c(C)c1,-4,-2
C=CCNc1nc(C2(C)CC3(CC(C)OC3=O)C(=O)O2)cs1 (stereo unspecified),1,0
COC(=O)C1=CN(C(C)c2ccccc2)C=C(C(=O)OC)C1c1cc(OC)c(OC)c(OC)c1 (stereo unspecified),2,-2
CCCn1ncc(CN2CCCC(N3CCN(c4ccc(OC)cc4)CC3)C2)c1C (stereo unspecified),4,6
CC(Cc1ccsc1)Nc1cnn(C)c(=O)c1Br (stereo unspecified),2,5
Cc1ccc(NC(=O)c2sc(=O)n(Cc3ccc(C(=O)N(C)C)cc3)c2C)cc1,-9,-9
Cc1cccc(C2c3[nH]c4ccccc4c3CCN2Cc2cccnc2)c1 (stereo unspecified),-21,-3
OCCC1(CNc2nc3ccccc3cc2CO)CCOCC1,-2,-2
CCn1cnnc1C(C)NC(=O)c1nc(-c2ccccc2)cs1 (stereo unspecified),-6,-4
Cn1cc(C2CCN(C(=O)C(C)(C)Oc3ccc(Cl)cc3)CC2)c2ccccc21,27,33
CN1CC2(CCCN(CCCn3cccc3)CC2)OC1=O (stereo unspecified),6,11

Retrieved by compound from the list above (4):
Molecule,NPYLR7 ag max-min,NPYLR7 ag
CCc1ccccc1Nc1nc2ccccc2n1C,-2,-3
COc1ccccc1CN1CCn2nc(C(=O)NCc3ccc(F)cc3)cc2C1=O,11,17
CCn1cnnc1C(C)NC(=O)c1nc(-c2ccccc2)cs1 (stereo unspecified),-6,-4
Cc1cccc(C2c3[nH]c4ccccc4c3CCN2Cc2cccnc2)c1 (stereo unspecified),-21,-3

Next section.
Molecule,NPYLR7 ag max-min,NPYLR7 ag
CC1(C)CC(=O)C2C(=Nc3[nH]c(=S)[nH]c(=O)c3C2c2ccc3c(c2)OCO3)C1 (stereo unspecified),42*,43*
FC(F)(F)CCc1nc(-c2ccccn2)no1,5,8
COCCN1CCN(C(=O)CCc2nnc(CCc3ccc(OC)cc3)o2)CC1,-1,0
COCCc1noc(C2(c3ccccc3)CCN(C(C)=O)CC2)n1,6,7
COc1ccc2c(C)ccnc2c1,-5,0
Cc1cccc(CN(CC(O)Cc2ccccc2)C(C)C)c1 (stereo unspecified),4,-1
Cc1nc(C(C)C)sc1C(=O)NCCc1nnc2n1CCNCC2,1,10
O=C(c1cccs1)N1CCN(c2nccc(-c3ccc4c(c3)OCO4)n2)CC1,-5,4
Cc1nonc1CC(=O)N1CCCC(CNC(=O)C2(c3ccc(Cl)cc3)CC2)C1 (stereo unspecified),8,18
O=C(NCCC1CC2CCC1C2)C(=O)Nc1ccc(N2CCOC2=O)cc1 (stereo unspecified),6,8
O=C(Nc1ccccc1F)NC1CCN(Cc2ccccc2)CC1,-25,-23
O=S(=O)(c1ccc(F)cc1)N1CCOCC1,0&5,0&0
COc1ccccc1CN1C(=O)C(C)(C)ON=C1c1ccco1,1,9
CN(CCCc1cnn(C)c1)C(=O)c1cn[nH]n1,-8,4
CCOC(=O)C1C(=O)C=C(c2ccc(OC)cc2)CC1c1cccc(Cl)c1 (stereo unspecified),13,7
CCOC(=O)CNc1c(-c2ccc(C(C)(C)C)cc2)nc2ccccn12,11&-3,2&-4
CC(=O)NC1C(=O)n2c(nc3ccccc32)C(C(C)=O)C1c1ccccc1 (stereo unspecified),2,6
FC(F)(F)c1cc(Cl)c2nnc(SCCN3CCSCC3)n2c1,-1,3
O=C(C[n+]1ccc2ccccc2c1)c1ccc2c(c1)OCCO2,-6,-3
COC(=O)c1c(SC)nn(-c2cc(Nc3ccccc3)ncn2)c1N,1,-1
O=C1C[C@H]2CC[C@@H](CN1)N2C(=O)Cc1ccsc1,-1,3
CCC1CCc2c(sc3ncnc(N4CCC(C)CC4)c23)C1 (stereo unspecified),-2,0
Cc1ccc2nc(/C(Cl)=C/c3cccc(OCc4cccc(C#N)c4)c3)cc(=O)n2c1,9,15
CCOC(=O)N1CCN(c2nc(Nc3ccc(C)c(Cl)c3)c3nccnc3n2)CC1,9,5

Reformatted: results already given
Molecule: O=C(C[n+]1ccc2ccccc2c1)c1ccc2c(c1)OCCO2
  NPYLR7 ag max-min: -6	NPYLR7 ag: -3
Molecule: COC(=O)c1c(SC)nn(-c2cc(Nc3ccccc3)ncn2)c1N
  NPYLR7 ag max-min: 1	NPYLR7 ag: -1

The listing continues.
Molecule,NPYLR7 ag max-min,NPYLR7 ag
CC(C)Oc1ccc(C#N)cc1NC(=O)NC(C)C(=O)NC(C)(C)C (stereo unspecified),-3,3
O=C(Nc1c(F)cc(Br)cc1Br)N[C@@H](Cc1ccccc1)C(=O)N1CCC(C(=O)N2CCOCC2)CC1,27,26
CN=c1scc(-c2ccc(C)cc2)n1N=Cc1ccc(Br)cc1,3,7
C=CCN(Cc1cccs1)C(=O)Cn1cnc2c(Cl)cc(Cl)cc2c1=O,9,2
CSc1nc2c(c(=O)n1-c1ccccc1)SCC2,-5,-3
CC(=O)Oc1cccc(C(=O)N2CCC(c3nc(-c4ccccc4F)no3)CC2)c1C,-4,-2
COc1ccc(CCN2CC(NC(=O)c3cc[n+]([O-])cc3)CC2=O)cc1 (stereo unspecified),15,33
COc1ccc(CN(CCc2c[nH]c3ccccc23)C(=O)CN(CC(C)C)C(=O)/C=C/c2ccccc2)cc1OC,5,0
CSc1ccc(CN(C(=O)c2cc(C)[nH]c(=O)c2)C2CC2)cc1,1,0
CC(CNS(C)(=O)=O)OC(=O)C1CC2CCC1C2 (stereo unspecified),8,9
CCCN(CC(=O)N(Cc1ccccc1)Cc1sccc1C)S(=O)(=O)c1ccc(Cl)cc1,21,14
COc1ccc(-c2nc3ccc(C)cn3c2NC(=O)C2CCCCC2)cc1,3,0
CCOc1ccc(-n2c(C)c(C)n3c4c(=O)[nH]c(=O)n(C)c4nc23)cc1,-2,5
C=CCn1c(SCC(=O)Nc2cccc(NC(C)=O)c2)nc2ccccc2c1=O,1,1
CNC(=O)CSc1nc(-c2ccccc2)c(NC(=O)c2cc(OC)cc(OC)c2)s1,-7,-1
Cc1cc(C)cc(N2CC(c3nc4ccccc4n3C)CC2=O)c1 (stereo unspecified),0,1
CCCc1cc(N2CCCC(CN3CCCC3=O)C2)nc(C)n1 (stereo unspecified),3,10
COc1ccc(C(=O)Nc2c(-c3cccc(F)c3)cn(C)c2C(=O)OC(C)C)cc1OC,-3,-1
COc1ccc(CCN(Cc2ccc(C)s2)C(=O)CN(C2CC2)S(=O)(=O)c2c(C)cc(C)cc2C)cc1OC,-5,-2
CCOC(=O)c1c(C)nn(-c2ccc(C(=O)N3CCC(O)(c4ccc(Cl)cc4)CC3)cc2)c1C,-9,-6
Cc1ccccc1-c1noc(CN2CCCC2c2nc(-c3ccccn3)no2)n1 (stereo unspecified),0,3
O=C(NN=Cc1ccc(O)cc1)c1cc(-c2ccc(Cl)cc2Cl)n[nH]1,-8,-5
COc1ccc(NC(C)=O)cc1NC(=O)CN1CCSc2ccccc21,5,13
Cc1ccc(N=Cc2nc(-c3cccc4ccccc34)oc2O)cc1Cl,-8,-2
CNC(=O)NC(=O)CSc1nc(N)c2c3c(sc2n1)CCCCC3,8,21
CC(C)N(Cc1cc(-c2ccccc2)n[nH]1)C(=O)C1CC2(CCNCC2)CN1 (stereo unspecified),2,3
Cc1cc(OCc2nc(C(=O)NCc3ccncc3)cs2)ccc1Cl,-18,-16
O=C(NCc1nc2ccccc2n1CC1(O)CCCCC1)c1ccccc1,6,-2
Cc1ccc(-n2c(CNS(=O)(=O)c3c(C)cc(C)cc3C)nnc2SCc2ccc(F)cc2)cc1,18,14
COCCN(CC1CCN(Cc2ccccc2F)CC1)C(=O)c1ccco1,4,9
COc1cc(/C=C2\C(=N)N3N=CSC3=NC2=O)cc(Br)c1OC(=O)c1ccco1,45*,49*
Cc1cccc(-n2nc(C(C)(C)C)cc2NC(=O)CN(C(=O)c2ccc(Cl)cc2)C(C)C)c1C,1,-4
COc1cc(NCC(c2cccnc2)N2CCOCC2)ncn1 (stereo unspecified),-17,-10
CC(Sc1nnc(Nc2ccccc2Cl)s1)C(=O)NC1CC1 (stereo unspecified),2,11
CCCn1nc(C(=O)Nc2ccc(C)c(C)c2)ccc1=O,1,1
CC(=O)c1[nH]c2ccc([N+](=O)[O-])cc2c1CCN1C(=O)c2ccccc2C1=O,3,5
COc1ccccc1-c1c(C)nn2c(N3CCOCC3)cc(C)nc12,0,1
Cc1ccc(S(=O)(=O)NCCn2ncccc2=O)c(C)c1,0,2
O=C(CCc1nnc(Cc2ccc3c(c2)OCO3)o1)NC1Cc2ccccc2C1,0,16
Cc1cccc(C(C2Sc3nc(C)nn3C2=O)N2CCC3(CC2)OCCO3)c1 (stereo unspecified),1,2
CC(C)N1C(=O)N(C)C2(CCN(Cc3ccc4c(c3)Cc3ccccc3-4)CC2)C1=O,11,17
Cc1ccc(C2=NN(C(=O)CN3CCC4(CC3)OCCO4)C(c3ccccc3)C2)cc1 (stereo unspecified),5,6
COC(=O)Cn1c(=NC(=O)c2ccc(C(C)=O)cc2)sc2c(C)cc(C)cc21,3,4
Cc1cccc(C2SC(C)C(=O)N2CCO)c1 (stereo unspecified),-2,-1
CCN(CC1CCOC1)CC(O)c1cc(C)ccc1C (stereo unspecified),9,11
Cc1nc(C)n(CCCn2cc(-c3ccnc4ccccc34)nn2)n1,-2,6
CCn1cnnc1CN(C)C(=O)CC1C(=O)NCCN1C1Cc2ccccc2C1 (stereo unspecified),1,3
COc1ccc(OC2CCN(C(C)=O)CC2)c(C(=O)NC(C)c2cn(C)nc2C)c1 (stereo unspecified),4,6
COc1ccc(CCN(C)c2cc(Cl)nc(SCC(=O)N3CCN(C/C=C/c4ccccc4)CC3)n2)cc1OC,19,16
COc1ccccc1CN1C(=O)O[C@@H]2CN(C(=O)C(=O)c3ccco3)C[C@@H]21,4,5
CCOC(=O)c1c(C)c(C(=O)NC(C)COC)c(C)n1CC (stereo unspecified),13,7
Cn1c(CCC(=O)N2CCCC3(CNC(=O)O3)C2)nc2cccnc21 (stereo unspecified),-1,9
Cc1ccccc1Cc1nn[nH]n1,-3,-3
CCC(C(=O)N(CCOC)Cc1cc(NC(=O)c2cccc(F)c2)ccc1N(C)C)c1ccccc1 (stereo unspecified),11,1
COc1ccccc1C(CNC(=O)c1ccc(C2SCCS2)cc1)N(C)C (stereo unspecified),6,8
CCSc1nc(CC(=O)NCc2sc(C)nc2CC)cs1,-6,-3
CCOC(=O)C1=C(C)NC2=C(C(=O)CC(C)(C)C2)C1c1cccc(Oc2ccccc2)c1 (stereo unspecified),-14,-7
O=C(NC1CC1)c1ccccc1NC(=O)C1Cc2ccccc2O1 (stereo unspecified),7,12
c1c(CN2CCSCC2)nn2c1CNCCC2,-1,3
O=C(C1CCCN1c1ncccn1)N1CCc2c(Cl)cccc2C1 (stereo unspecified),1,6
CCC(NC(=O)CCNC(=O)c1ccccc1F)c1cccs1 (stereo unspecified),5,8

A portion of the library; count on the stated rates, not on these rows.
